Sa growth 42C: S. aureus growth inhibition | S. aureus RN4220 growth, OD600, 20 h, 42 °C; hits give low values | relative growth, % (concentration not given with the values) | 0.53% of 170,000 active | AID 720641;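 active means growth at 42 °C up to 50% and 20 or more points under that at 30 °C, or under 10% at both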;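 further: 300 nL library stock went into each well; scaled to the means of positive and negative controls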
GIV-Gai inh: blocks GIV peptide binding to rat Galpha-i3; P08753; Galpha-i3/FITC-GIV peptide fluorescence polarization, 90 min; hits give low values; scaled: aluminum fluoride 0%, vehicle 100%; percent of control (FP), % (concentration not given with the values); 0.42% of 210,000 active;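 active means replicate mean at 85% of control or lower, very high polarization wells dropped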;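 further: wells of about 15 µL received 100 nL stock; the first replicate is given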
Target sequence (P08753 whole entry, looked up): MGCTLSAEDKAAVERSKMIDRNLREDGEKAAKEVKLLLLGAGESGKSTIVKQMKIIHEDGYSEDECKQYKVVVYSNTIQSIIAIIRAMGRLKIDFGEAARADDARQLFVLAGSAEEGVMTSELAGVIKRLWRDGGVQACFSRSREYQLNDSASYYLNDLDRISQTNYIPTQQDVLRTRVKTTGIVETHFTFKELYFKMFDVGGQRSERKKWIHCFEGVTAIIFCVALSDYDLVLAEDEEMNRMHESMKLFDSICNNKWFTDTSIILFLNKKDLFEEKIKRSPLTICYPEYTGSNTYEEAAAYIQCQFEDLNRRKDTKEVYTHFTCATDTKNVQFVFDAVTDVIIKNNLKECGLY
HCMV UL50-53 inh: disrupts HCMV UL50-UL53 complex binding; inhibition, % (test concentration not listed); AID 1918969; 0.15% of 190,000 active; HTRF UL50-UL53 interaction, normalized percent inhibition;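 active means both replicates at 50% or more, plus weaker picks with an unusually low signal ratio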;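 further: stock transfer was 100 nL into about 20 µL; 0% = negative control wells and 100% = wells with untagged competitor protein; inactives centre near -12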
Sa growth 42C second temp: also measured in Sa growth 42C; calls as there; relative growth, %; measured here: growth at 30 °C;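 optical density after 20 h as mean of two plates; 100% = untreated growth and lower means inhibition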
Starred values were filed as active, the others as inactive; nt = not tested or not shown.

SMILES | Sa growth 42C | Sa growth 42C second temp | GIV-Gai inh | HCMV UL50-53 inh
COc1ccc(CCC(=O)NCCc2csc(-c3ccc(C(F)(F)F)cc3)n2)cc1 | 104 | 101 | 106 | nt
O=C(CSc1nc2cc(-c3ccccc3)[nH]c2c(=O)n1Cc1ccccc1)N1CCCCC1 | nt | nt | 110 | 14
CCOc1ccccc1NC(=O)CSc1nnc(C(CO)NC(=O)c2ccc(OC)cc2)n1C (centres undefined) | 104 | 99 | 98 | -2
Cc1onc(-c2ccccc2Cl)c1C(=O)Nc1cc2c(cc1N1CCCC1)n(C)c(=O)c(=O)n2C | nt | nt | 99 | -36
Cc1ccc(C(=O)OCc2cc(=O)n3nc(CC(C)C)sc3n2)cc1 | 87 | 98 | 106 | nt
Cc1ccccc1-c1noc(-c2cccnc2N2CCC(C)CC2)n1 | nt | nt | 98 | 11
O=C1c2ccccc2C(O)N1c1cccnc1 (centres undefined) | 109 | 94 | 104 | nt
CCc1ccc(Cn2c(CNS(=O)(=O)c3ccc([N+](=O)[O-])cc3)nc3cccnc32)cc1 | 107 | 102 | 104 | nt
COc1ccc(/C=C/C(=O)O)cc1S(=O)(=O)N1CCCC1 | 105 | 92 | 98 | -18
COC(=O)CCC(=O)Nc1ccc(S(=O)(=O)Nc2cc(C)cc(C)c2)cc1 | 100 | 84 | nt | -13

3 compounds already listed, sorted by length of the SMILES, low to high:
SMILES | Sa growth 42C | Sa growth 42C second temp | GIV-Gai inh | HCMV UL50-53 inh
COc1ccc(/C=C/C(=O)O)cc1S(=O)(=O)N1CCCC1 | 105 | 92 | 98 | -18
O=C(CSc1nc2cc(-c3ccccc3)[nH]c2c(=O)n1Cc1ccccc1)N1CCCCC1 | nt | nt | 110 | 14
Cc1onc(-c2ccccc2Cl)c1C(=O)Nc1cc2c(cc1N1CCCC1)n(C)c(=O)c(=O)n2C | nt | nt | 99 | -36

The listing continues.
SMILES | Sa growth 42C | Sa growth 42C second temp | GIV-Gai inh | HCMV UL50-53 inh
Cc1cc(C)c2[nH]c(=O)c(CN(CC3CCCO3)C(=O)NC3CCCCC3)cc2c1 (centres undefined) | 100 | 92 | 102 | -24
CCNc1nc(NCC)n2c(SC(C)C(=O)c3ccc(C)cc3)nnc2n1 (centres undefined) | 99 | 86 | 103 | -9
COc1ccc(N=C2SC(C(=O)Nc3ccccc3OC)CC(=O)N2CCc2ccc(OC)c(OC)c2)cc1 (centres undefined) | nt | nt | 110 | -6
CCN1C(=O)C(O)(c2c[nH]c3ccccc23)c2ccccc21 (centres undefined) | 98 | 82 | 105 | -14
Cc1ccc(NC(=O)CSc2nc3c([nH]c4ccccc43)c(=O)n2-c2ccccc2)cc1Cl | 122 | 87 | 105 | nt
CC(Sc1ccccc1)C(=O)Nc1ccc(N2CCOCC2)cc1 (centres undefined) | 87 | 99 | nt | -1
C=C(C)c1cccc(C(C)(C)NC(=O)N2c3ccc(F)cc3CCC2C)c1 (centres undefined) | 97 | 95 | 111 | nt
COc1ccc(C)cc1NC(=O)C1CCN(S(=O)(=O)c2cccc3nonc23)CC1 | 103 | 89 | 108 | -15
O=C(COC(=O)CCc1nnc(-c2ccccc2)o1)Nc1ccc(F)cc1 | 88 | 94 | nt | -3
CCn1c(=O)c(N2CCC(C(=O)NCCc3c[nH]c4ccccc34)CC2)nc2cccnc21 | nt | nt | 107 | -24
Nn1c(SCc2cc(=O)n3ccsc3n2)nnc1-c1ccc(Cl)cc1Cl | 114 | 84 | nt | -27
CC(C)c1nn2c(=O)cc(COC(=O)c3ccccc3NC(=O)COc3ccccc3)nc2s1 | 78 | 93 | 104 | nt
CCC(=O)N1CCc2cc(S(=O)(=O)NC(C(=O)NCCc3ccc(C)cc3)C(C)C)ccc21 (centres undefined) | 96 | 94 | 104 | 0
CC1CCc2sc(C(=O)OC3CCCCC3=O)cc2C1 (centres undefined) | 94 | 90 | nt | -6
Cc1nnc(C)n1/N=C\c1cccc(O)c1 | 75 | 99 | nt | 8
CCOc1ccccc1NC(=O)c1cccn1-c1cccnc1 | nt | nt | 105 | -38
Cc1cccc(NC(=O)CSc2ccc3ccccc3c2)n1 | 85 | 93 | nt | 8
COc1cc(-c2noc(-c3ccccc3)n2)ccc1OCC(=O)N1CCOCC1 | nt | nt | 107 | -27
CCNc1c2c(nc3ccccc13)CC(C)(C)CC2=O | 89 | 91 | 111 | nt
N#Cc1ccccc1NC(=O)COC(=O)c1ccccc1I | 101 | 98 | nt | -18
CC(=O)N(CCc1ccccc1)C1CC(=O)N(c2ccccc2)C1=O (centres undefined) | 92 | 81 | 109 | nt
Cc1noc(C)c1C(=O)NCCC12CC3CC(CC(C3)C1)C2 | 82 | 88 | nt | -9
O=C(Nc1ccc(F)cc1Cl)c1cc(-c2ccccn2)n[nH]1 | nt | nt | 102 | -17
CCOC(=O)c1cccc(-c2ccc(/C=C3\C(=N)N4N=C(N5CCCC5)SC4=NC3=O)o2)c1 | 92 | 70 | 104 | -39
Cc1cc(=O)[nH]c2nnc(SCC(=O)NC(C)C)n12 | 93 | 88 | 102 | -17
COc1cccc(OC)c1C(=O)Nc1ccccc1NC(=O)c1c(OC)cccc1OC | 95 | 94 | 103 | -4
O=C(CC(SCc1ccc(Cl)cc1)C(=O)O)c1ccc(Cl)cc1 (centres undefined) | 74 | 77 | nt | 2
Brc1ccc2ncnc(Nc3ccc(N4CCCC4)cc3)c2c1 | 84 | 77 | 105 | -17
O=S(=O)(NC1CCCC1)c1cccc(S(=O)(=O)N2CCCCC2)c1 | 120 | 102 | 105 | -9
COc1cc(NC(=O)Nc2cccc(-c3noc(C)n3)c2)cc(OC)c1OC | 94 | 97 | 103 | nt
COc1ccc(-c2ocnc2C(=O)NCc2nn(-c3ccccc3)nc2C)cc1 | 84 | 81 | 109 | -54
CCc1ccc(S(=O)(=O)NCCc2csc(C)n2)cc1 | 95 | 93 | 106 | -34
CC1CCN(C(c2ccccc2)c2nnnn2Cc2ccc(F)cc2)CC1 (centres undefined) | 78 | 88 | 105 | 3
CN(C)c1ccc2cc(C(=O)O)[nH]c2c1 | 106 | 86 | 98 | -18
COC(=O)c1cnn(C(=O)Nc2c(C)cccc2C)c1C(OC)OC | 97 | 89 | 101 | -29
CC(C)(C)OC(=O)N1CCN(C2CC(=O)N(c3ccccc3)C2=O)CC1 (centres undefined) | 87 | 102 | 98 | -11
CCn1c(CN(c2ccc(F)cc2)S(C)(=O)=O)nnc1SCC(=O)N1CCc2ccccc21 | nt | nt | 101 | -10
O=C(Cn1c(=O)oc2cc(S(=O)(=O)N3CCCC3)ccc21)Nc1ccc(Cl)cn1 | 85 | 81 | 101 | -1
Cc1ccc(-n2nc(C)c3c(C)c(CCC(=O)NCc4ccc5c(c4)OCO5)c(C)nc32)cc1 | 103 | 96 | 106 | 1
O=C1c2ccccc2C(=O)N1c1ccc(Cl)cc1 | 102 | 94 | 101 | nt

Structures listed so far that have a COOH group:
SMILES | Sa growth 42C | Sa growth 42C second temp | GIV-Gai inh | HCMV UL50-53 inh
COc1ccc(/C=C/C(=O)O)cc1S(=O)(=O)N1CCCC1 | 105 | 92 | 98 | -18
O=C(CC(SCc1ccc(Cl)cc1)C(=O)O)c1ccc(Cl)cc1 (centres undefined) | 74 | 77 | nt | 2
CN(C)c1ccc2cc(C(=O)O)[nH]c2c1 | 106 | 86 | 98 | -18

Next part.
SMILES | Sa growth 42C | Sa growth 42C second temp | GIV-Gai inh | HCMV UL50-53 inh
COc1ccccc1NC(=O)c1ccc(COc2ccc(C)c(C)c2)o1 | 99 | 87 | 103 | -25
C/C(=N\OCC(=O)N1CCN(c2ccccc2)CC1)c1ccccc1 | 107 | 93 | nt | 9
COC(=O)c1sc(SC)c(C#N)c1-c1cccs1 | 83 | 85 | 105 | -8
Cc1nn(-c2cc(N3CCCCC3)ncn2)c(C)c1CCC(=O)NC1CCCC1 | nt | nt | 102 | 6
CCOc1ccc(-c2c(C)nn3c(C)c(C(=O)NC(C)c4ccccc4)cnc23)cc1OCC (centres undefined) | 92 | 93 | 101 | nt
Cc1cc(-n2c(C)nc3ccccc3c2=O)ccc1NC(=O)c1ccccc1[N+](=O)[O-] | 115 | 89 | 95 | nt
c1ccc(SCc2cccc(CSc3ccccn3)n2)nc1 | 117 | 48 | 102 | -6
COc1ccc(I)cc1S(=O)(=O)N1CCOCC1 | 96 | 88 | nt | -20
O=C1c2ccccc2C(=O)N1CN(C(=O)c1ccccc1)c1ccc(O)cc1 | 99 | 91 | 103 | -37
Cc1ccc(Cn2c(CN3CC(C)OC(C)C3)nc3c2c(=O)[nH]c(=O)n3C)cc1 (centres undefined) | 105 | 88 | 110 | nt
CC(C)NC(=O)Nc1ccccc1C(=O)N=c1sc2ccccc2n1C | 88 | 80 | nt | -26
Cc1ccc(CN2CCC(CNC(=O)Nc3ccccc3F)CC2)cc1 | 99 | 86 | 105 | 3
CCn1cc(C(=O)N(Cc2ccc(F)cc2)C2CCCCC2)c(=O)c2ccc(C)nc21 | 107 | 91 | nt | -9
CCOc1ccc2nc(NC(=O)C3CCCN3S(=O)(=O)c3cc(C(=O)OC)n(C)c3)sc2c1 (centres undefined) | nt | nt | 101 | 8
Nc1scc[n+]1Cc1cccc2cccnc12 | 101 | 83 | nt | -9
C#CC(C)(CC)NC(=O)Cn1nnc(-c2ccc(OCc3ccccc3C)cc2)n1 (centres undefined) | 110 | 104 | 104 | 8
COc1ccc(Cc2nnc3n2N=C(N)CS3)cc1 | 104 | 93 | 97 | -12
O=C(Oc1ccc(F)cc1)c1nc(SCc2ccccc2F)ncc1Cl | 101 | 94 | 104 | 3
Cn1nc(-c2ccccc2)cc1NC(=O)c1ccccc1C(=O)O | 92 | 89 | 102 | 26
O=C1c2ccccc2S(=O)(=O)N1CCS(=O)(=O)c1ccc(Cl)cc1Cl | 84 | 82 | 99 | 3

Exported as a markdown table: part of the list above.
| Compound | Sa growth 42C | Sa growth 42C second temp | GIV-Gai inh | HCMV UL50-53 inh |
| --- | --- | --- | --- | --- |
| C#CC(C)(CC)NC(=O)Cn1nnc(-c2ccc(OCc3ccccc3C)cc2)n1 (centres undefined) | 110 | 104 | 104 | 8 |
| COc1ccc(Cc2nnc3n2N=C(N)CS3)cc1 | 104 | 93 | 97 | -12 |
| O=C(Oc1ccc(F)cc1)c1nc(SCc2ccccc2F)ncc1Cl | 101 | 94 | 104 | 3 |

New compounds follow:
SMILES | Sa growth 42C | Sa growth 42C second temp | GIV-Gai inh | HCMV UL50-53 inh
O=C(Nc1c(O)c2ccccc2oc1=O)c1ccccc1Cl | 128 | 92 | 109 | 0
O=C(C1CC(=O)N(C2CCCC2)C1)N1CCC(c2nc(-c3ccc(F)cc3)no2)CC1 (centres undefined) | nt | nt | 99 | -1
CCC1CN(C(=O)N2CCC(C(=O)NCc3ccccc3C)CC2)c2ccccc2O1 (centres undefined) | 102 | 83 | 106 | -16
Cc1[nH]c2[nH]n(-c3ccccc3)c(=O)c2c(=O)c1C | nt | nt | 101 | 6
C1=C(c2c[nH]c3ccccc23)CC(c2ccccc2)=NN=C1c1ccccc1 | 92 | 92 | nt | 0
Cc1cccc(NC(=O)C(Cc2ccccc2)NS(=O)(=O)c2ccc3c(c2)c(=O)n(C)c(=O)n3C)c1 (centres undefined) | 102 | 89 | 107 | -11
O=C(Nc1cccc(Cl)c1)C1CCN(c2nccn3nc(-c4ccccc4)cc23)CC1 | nt | nt | 108 | -6
CN1CC(C(=O)Nc2ccc(I)cc2)CC1=O (centres undefined) | 105 | 94 | 99 | -5
CC1CCCN(S(=O)(=O)c2ccc(N3CCCCS3(=O)=O)cc2)C1 (centres undefined) | 89 | 95 | 99 | nt
C/C(=N\O)C(=O)c1ccc(Cl)cc1 | 90 | 92 | nt | -12
CCCNC(=O)c1nc(-c2ccc(Cl)cc2)n2c1CCCCC2 | 99 | 88 | 106 | nt
O=C(NC1CC1)c1cc(=O)c2ccccc2o1 | 109 | 92 | nt | -32
CCc1cccc(NC(=O)Cn2c(=O)n(CCC(=O)NCC3CCCO3)c(=O)c3cc(OC)c(OC)cc32)c1 (centres undefined) | 104 | 94 | 104 | 1
O=C(c1cc(=O)c2cc(Cl)ccc2o1)N(Cc1ccccc1)C1CCS(=O)(=O)C1 (centres undefined) | 104 | 81 | 104 | -27
COc1ccc(Nc2nc(N)nc(CN3CCC(C)CC3)n2)cc1 | 92 | 79 | 105 | -26
Cn1c[n+](/N=C(/[O-])c2ccc(C(=O)ON3C(=O)CCC3=O)cc2)cn1 | 90 | 103 | nt | 2
O=C(NCc1ccccn1)c1cc(-c2ccccc2Cl)nc2ccccc12 | nt | nt | 108 | -30
O=C(COC(=O)c1cccc(S(=O)(=O)N2CCCCC2)c1)Nc1ccccc1 | 93 | 85 | nt | 0
O=c1cc(-c2ccccc2)nc(Nc2nc3ccccc3o2)[nH]1 | 78 | 41 | 106 | nt
CC(C)NC(=O)c1nc(-c2cccc(F)c2)n2c1CCCCC2 | 99 | 93 | 108 | nt
Cc1ccc2c(c1)N(C(C)C(=O)O)C(=O)CO2 (centres undefined) | 96 | 93 | 96 | -4
O=S(=O)(c1cccs1)n1cccn1 | 101 | 83 | 99 | -27
Cn1c(=N)n(CC(N)=O)c2ccccc21 | 100 | 96 | 105 | 13
CCc1cc2c(=O)c(-c3csc(C)n3)coc2cc1OC(C)C(=O)O (centres undefined) | 90 | 84 | nt | -40
CC(=O)N1CCCC(C(=O)O)C1 (centres undefined) | 94 | 92 | nt | -8

From PubChem
